Source: PubChem BioAssay (Southern Research Institute)
motility: Vibrio cholerae motility inhibitors, OD read-out (AID 588778); Vibrio cholerae motility, OD read-out; higher % means a stronger effect; test concentration not given here; primary cut-off and reference of the scale not given here; strong numbers were not always called active; inhibition, %; hits with a dose series show IC50 in µg/mL; 10,000 tested, under 10 active; in the data active = confirmed in a dose series
motility viability: also measured in motility; calls as there; inhibition, %; measured here: bacterial viability at 10 ug/mL;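 higher means fewer living bacteria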
The depositor's hits bear a star. Some of the compounds tested, so the mix of outcomes need not match the whole.

SMILES	motility	motility viability
COC(=O)c1ccccc1NC(=O)CSc1n[nH]c(-c2ccncc2)n1	9%	-4
Cn1c(SC/C=C/c2ccccc2)nnc1-c1cccs1	26%	7
Cc1cc(C)nc(NC(=O)Cc2ccc([N+](=O)[O-])cc2)c1	-3%	-7
O=C(CSc1nc2ccccc2[nH]1)Nc1ccc(Cl)cn1	5%	-2
COc1ccc([N+](=O)[O-])cc1CSc1nnnn1Cc1ccccc1	9%	-2
CCc1c(C)sc(NC(=O)Nc2ccc(Cl)c(Cl)c2)c1C(N)=O	1%	-3
O=C(Nc1ccc(F)c(Cl)c1)OCc1ccccc1	59%	15
CC(CNC(C)c1ccccc1)C(=O)O (configuration not stated)	15%	9
O=C(CCn1cnc2ccccc2c1=O)Nc1ccc2c3c(cccc13)CC2	5%	-2
COC(=O)c1ccc(N2C(=O)CC(SCCc3nc4ccccc4[nH]3)C2=O)cc1 (configuration not stated)	-5%	2
O=C(NCc1cccnc1)c1ccc(-c2ccccc2[N+](=O)[O-])o1	-8%	-8
Oc1ccc(CCc2ncccc2O)cc1	-4%	4
CC(Sc1nc2ccccc2[nH]1)c1nc2ccccc2c(=O)[nH]1 (configuration not stated)	-15%	-2
CCOC(=O)c1sc(NC(=O)CSc2nnc(C)s2)nc1C	2%	0
Cc1ccc(NC(=O)C(=O)NNC(=O)c2ccco2)cc1Cl	31%	9
CC12CCC(C(=O)NCc3ccco3)(C(=O)C1=O)C2(C)C (configuration not stated)	9%	-3
CCC(C)Cc1nc(N)c(C#N)c(-c2ccccc2Cl)c1C (configuration not stated)	-10%	-8
O=C(NN1C(=O)CCC1=O)c1cccc(I)c1	3%	21
Cc1c2c(=O)n(-c3nc4ccccc4s3)[nH]c2cc(=O)n1CCc1ccccc1	-14%	-9
COc1ccc(N(C)NC(=O)Cc2ccccc2)cc1	17%	4

7 entries from above, arranged by molar mass, low to high:
SMILES	motility	motility viability
Oc1ccc(CCc2ncccc2O)cc1	-4%	4
O=C(Nc1ccc(F)c(Cl)c1)OCc1ccccc1	59%	15
CCC(C)Cc1nc(N)c(C#N)c(-c2ccccc2Cl)c1C (configuration not stated)	-10%	-8
O=C(CSc1nc2ccccc2[nH]1)Nc1ccc(Cl)cn1	5%	-2
CC(Sc1nc2ccccc2[nH]1)c1nc2ccccc2c(=O)[nH]1 (configuration not stated)	-15%	-2
Cc1c2c(=O)n(-c3nc4ccccc4s3)[nH]c2cc(=O)n1CCc1ccccc1	-14%	-9
COC(=O)c1ccc(N2C(=O)CC(SCCc3nc4ccccc4[nH]3)C2=O)cc1 (configuration not stated)	-5%	2

(more compounds)
SMILES	motility	motility viability
O=C(c1ccco1)N1CCN(Cc2nc3ccccc3c(=O)n2-c2ccc(F)cc2)CC1	2%	-11
O=Cc1ccc(OCC(=O)N2CCOCC2)cc1	18%	15
CCNc1nc(NC(C)C)nc(OCCOC(C)=O)n1	9%	-3
COc1cc(C=O)ccc1OCCOc1ccc(Br)cc1Cl	-6%	-1
COc1ccc(OCCSc2nc(N)cc(=O)[nH]2)cc1	-3%	6
CC(C)(C)c1csc(NC(=O)c2ccc(N3CCCCC3)c([N+](=O)[O-])c2)n1	13%	2
COc1cccc(Oc2nc(N)nc(N)n2)c1	-11%	-1
Fc1ccc(OCc2nn[nH]n2)c(F)c1	8%	-5
O=C(NCc1ccco1)c1ccc2nc(-c3ccco3)c(-c3ccco3)nc2c1	12%	5
COc1ccc(Cl)cc1NC(=O)N(C)Cc1c(C)nn(C)c1C	6%	-1
C=CCc1ccccc1OCc1nc(=S)[nH][nH]1	-1%	8
COc1ccc(CCN2C(=O)C3C4CCC(C4=C(C)C)C3C2=O)cc1OC (configuration not stated)	2%	-5
COc1ccc(CN2C(=O)C(O)(CC(=O)c3c(C)coc3C)c3ccccc32)cc1OC (configuration not stated)	96%	39
O=C(O)C1CC(c2ccccc2O)=NO1 (configuration not stated)	44%	16
O=C(c1ccco1)N1CCN(C(=O)c2cnn3cccnc23)CC1	-6%	3
COc1ccc(/C(N)=N/OC(=O)c2cc(Br)ccc2Cl)cc1	0%	-3
COc1ccccc1-c1nnc2ccc3ccccc3n12	-3%	-2
CC1CCc2cc(F)ccc2N1C(=O)COc1ccc(Cl)cc1Cl (configuration not stated)	17%	31
CCc1ccc(C(=O)NC2CCCCC2)s1	5%	-1
O=C(Nc1ccccc1-c1nc2ccccc2s1)c1sc2ccccc2c1Cl	-3%	-2

Copied from the list:
For motility, COc1ccc(CCN2C(=O)C3C4CCC(C4=C(C)C)C3C2=O)cc1OC (configuration not stated) reads 2%
For motility viability, COc1ccc(/C(N)=N/OC(=O)c2cc(Br)ccc2Cl)cc1 reads -3
For motility viability, O=C(NCc1ccco1)c1ccc2nc(-c3ccco3)c(-c3ccco3)nc2c1 reads 5

The listing picks up; the 6 compounds before the break are reprinted first.
SMILES	motility	motility viability
O=C(c1ccco1)N1CCN(C(=O)c2cnn3cccnc23)CC1	-6%	3
COc1ccc(/C(N)=N/OC(=O)c2cc(Br)ccc2Cl)cc1	0%	-3
COc1ccccc1-c1nnc2ccc3ccccc3n12	-3%	-2
CC1CCc2cc(F)ccc2N1C(=O)COc1ccc(Cl)cc1Cl (configuration not stated)	17%	31
CCc1ccc(C(=O)NC2CCCCC2)s1	5%	-1
O=C(Nc1ccccc1-c1nc2ccccc2s1)c1sc2ccccc2c1Cl	-3%	-2
Cc1nc2ccccc2nc1CSc1nc2ccccc2s1	1%	-2
COCc1nc2c([nH]1)C(c1ccc(Cl)cc1)c1nc(N)oc1-2 (configuration not stated)	1%	2
Cc1cc(C)n2nc(NCc3cccc([N+](=O)[O-])c3)nc2n1	6%	23
Cc1noc(C)c1C(=O)N1CCN(c2ncccn2)CC1	-4%	5
COc1ccc(C(=O)NC(=S)Nc2ccc3oc(-c4ccc(C)c(C)c4)nc3c2)cc1[N+](=O)[O-]	-3%	-6
CSc1nc(N)nc(SC2C=CCCC2)c1C#N (configuration not stated)	5%	1
O=C(CSc1nnc2scc(-c3ccccc3)n12)Nc1ccc(-c2nc3ccccc3s2)cc1	2%	0
CCc1cccc(CC)c1NS(C)(=O)=O	-17%	0
COc1cc(Cl)cc2cc(C(=O)NNc3ccccc3)c(=O)oc12	13%	-3
c1ccc(-c2cc(-c3nn4c(-c5ccco5)nnc4s3)c3ccccc3n2)cc1	20%	24
O=S(=O)(c1ccccc1)C(c1ccccc1)c1ccccc1	-3%	-9
COc1cc(NC(=S)Nc2cccnc2)cc(OC)c1OC	-7%	-2
FC(F)(F)c1nnc(N2CCCCC2)s1	2%	4
Cc1ccc(S(=O)(=O)NCCCNS(=O)(=O)c2ccc(Cl)cc2)cc1	0%	-7
N#Cc1ccc(-c2cc(Cl)ccc2Cl)o1	10%	2
Cn1c(CSCc2ccccc2)nnc1SCC(=O)c1ccc(Br)cc1	23%	6
CS(=O)(=O)Nc1cc(-c2nn(CC(=O)N3CCCCC3)c(=O)c3ccccc23)ccc1N1CCOCC1	-7%	2
COc1cccc2cc(C(=O)NCc3ccccn3)c(=O)oc12	10%	6
COc1ccc(Cl)cc1NS(=O)(=O)c1ccc(OC)c(C)c1C	20%	3
Cc1ccc(S(=O)(=O)NCCc2c(C)n(Cc3ccccc3)c3ccccc23)cc1	-7%	-4
O=C(c1ccc2c(c1)OCO2)N1CCC2(CC1)OCCO2	-8%	-7
COC(=O)C1(C(O)C(=O)c2ccc(C)cc2C)CCCCC1 (configuration not stated)	8%	-2
Cc1nn2c(CN(C(=O)c3cccs3)c3ccccc3)nnc2c2ccccc12	5%	-4
CCOc1ccc(NC(=S)NNC(=O)CC(C)O)cc1 (configuration not stated)	8%	-4
COCc1cc(C)nc(N2CCc3ccccc32)c1C#N	8%	2
Cc1nnc(NC(=O)CSc2nc(=O)cc(N)n2-c2ccccc2)s1	8%	-2
O=C(Cn1cnc2ccccc21)c1ccc(Cl)cc1	15%	23
Cc1c(-n2cccc2)cccc1[N+](=O)[O-]	9%	27
O=C(c1ccccc1)n1nc(-c2cccnc2)nc1NCc1cccs1	-13%	-8
CCOC(=O)c1c(-c2ccc(Cl)cc2)csc1NC(=O)c1cncc(Br)c1	-4%	-6
O=C1C=C(c2ccc(Cl)cc2)OC2(CCCC2)O1	14%	-1
Cn1c(COc2ccccc2Br)nc2ccccc21	11%	-2
CC(C)(C)NC(=O)c1ccc2ccccc2n1	14%	12
O=c1c2cc(I)ccc2nc(/C=C/c2ccccn2)n1CCc1ccccc1	-7%	-2
CC1(C)C(=O)OC(C#Cc2ccccc2)C(C)(C)C1=O (configuration not stated)	-7%	1
Cc1cc(C)nc(/N=C(\NC(=O)NC2CCCCC2)Nc2ccccc2Sc2ccccc2)n1	-9%	0
Cc1c(NC(=O)NC2CCCCC2)cccc1[N+](=O)[O-]	12%	21
COc1ccccc1-c1cn[nH]c(=S)n1	3%	1
CCOc1ccccc1NC(=O)C1CCN(C(=O)c2ccccc2C)CC1	3%	-2
Cc1cccc(Oc2coc3cc(OC(=O)c4cc5ccccc5oc4=O)ccc3c2=O)c1	-3%	-2
Cc1ccc(-c2ccc(/C=C/C(=O)c3ccco3)o2)cc1	-7%	-5
COc1ccc(/C(N)=N/OC(=O)c2ccccc2-c2ccccc2)cc1	11%	6
CC1=NN(c2ccc(S(N)(=O)=O)cc2)C(=O)C1	12%	-9
COc1ccccc1Oc1ccccc1OC	20%	26
O=C(Nc1ccc(F)cc1)Nc1ccc(-c2ccccc2[N+](=O)[O-])cc1	0%	-6
CC(=O)Nc1ccc2nc(NC(=O)c3cccc(-c4cc5ccccc5oc4=O)c3)sc2c1	27%	2
Cc1cccc(NC(=S)NCc2ccccc2Cl)c1C	-28%	-11
Nc1nc(-c2ccccc2)nn1S(=O)(=O)c1ccc(Cl)cc1	-6%	-3
Cc1nnc(SCC(=O)N2CCN(c3cccc(Cl)c3)CC2)s1	1%	1
CCOc1ccc2nc(C(C)O)[nH]c2c1 (configuration not stated)	-19%	3
O=C(CCCSCC(=O)Nc1ccccc1)NCc1cccnc1	15%	19
CC1=CC(c2ccccc2)n2nc(N3C(=O)C4CCCCC4C3=O)nc2N1 (configuration not stated)	-4%	-5
COc1cc(Cl)c(C)cc1NC(=O)Oc1ccccc1	-5%	-5
NC(=NC(=O)c1ccccc1)N1CCN(C(c2ccccc2)c2ccccc2)CC1	-26%	-13
O=C(c1ccco1)N(Cc1ccccc1)Cc1cn(-c2ccccc2)nc1-c1cccs1	-9%	-6
CCOC(=O)C1C(=O)CC(C)(O)C(C(=O)OCC)C1c1cccc(OC(F)(F)C(F)F)c1 (configuration not stated)	-1%	-4
CCOC(=O)c1ccc(NC(=O)C(=O)NCc2ccccn2)cc1	-3%	-6
COC(=O)COn1c(C)nc2ccccc2c1=O	1%	0
O=C1NC(=S)N(S(=O)(=O)c2cccc3cccnc23)C1Cc1ccccc1 (configuration not stated)	-7%	-2
Cc1nn(CC(O)COc2ccc3cc(Br)ccc3c2)c(C)c1Cl (configuration not stated)	12%	-2

Compound profiles, from the list above. Values in the order: motility | motility viability
CCOc1ccc(NC(=S)NNC(=O)CC(C)O)cc1 (configuration not stated) is entered as 8% | -4
COC(=O)C1(C(O)C(=O)c2ccc(C)cc2C)CCCCC1 (configuration not stated) is entered as 8% | -2

(listing goes on)
SMILES	motility	motility viability
CCC(=O)NC(=S)Nc1ccc(Cl)c(-c2nc3ccccc3[nH]2)c1	0%	-4
O=C(CN1CCOCC1)NCCNc1c(Cl)c(Cl)c(Cl)c(Cl)c1Cl	5%	8
O=C(Nc1ncc(Cc2cccc(Cl)c2)s1)c1ccccc1Br	-14%	-9
O=C(CC1(O)C(=O)N(Cc2cccc3ccccc23)c2ccccc21)c1ccccn1 (configuration not stated)	-15%	-4
S=C(c1cccs1)N1CCOCC1	2%	26
O=C(NC(=S)Nc1ccc(F)c([N+](=O)[O-])c1)c1ccc(-c2ccccc2)cc1	-21%	-7
